Screening results as filed in PubChem BioAssay.
VACV mCherry inh: qHTS for Stage-Specific Inhibitors of Vaccinia Orthopoxvirus: mCherry Reporter Primary qHTS; AID 720579, 2013; Vaccinia virus mCherry reporter infection, fluorescence; about a quarter of the inactives have no number; 310,000 compounds, 0.63% hits; Potency, µM (titrated, usually from 36.5 µM), without a hit: at the highest dose activity change, negative = inhibition, most hits filed as inhibitors; active = well fitted inhibition curve with a large enough effect; inconclusive = small, poorly fitted or top-dose-only effect; inactive = no such curve, though single readings can be large or run the other way; tested in A549 cells; also: nearly all actives have a fitted effect of over 35% in size; inactives centre near -10
Vaccinia Venus: qHTS for Stage-Specific Inhibitors of Vaccinia Orthopoxvirus: Venus Reporter Primary qHTS; Vaccinia virus Venus reporter expression, fluorescence; Potency, µM (series often up to 36.5 µM), without a hit: at the top dose activity change, negative = inhibition, usual class: inhibitors; 330,000 compounds, 0.46% hits; active means well fitted inhibition curve with a large enough effect; inconclusive means small, poorly fitted or top-dose-only effect; inactive means no such curve, though single readings can be large or run the other way; tested in A549 cells; also: nearly all actives have a fitted effect of over 30% in size; inactives centre near -10
* marks the source's active call; other numbers are inactive results; i = inactive; ? = inconclusive; nt = not tested or not shown; & = joins results of further samples; [ ] = another dose, or the depositor's remark. % is scaled to controls: 0 for no effect and ±100 for the full control effect; potency is read from the fitted curve at half-maximal effect.

Each structure is followed by: VACV mCherry inh | Vaccinia Venus
CC1CCN(S(=O)(=O)c2ccc(C(=O)Nc3nnc(C4CC4)o3)cc2)CC1
→ ? | -12%
O=c1c2[nH]c3ccccc3c2ncn1C1CCCCC1
→ -24% | -26%
Cc1ccc(C(=O)N2CCSC2=S)cc1
→ ? | -15%
Cc1csc(N2C(=O)C3C4CCC(O4)C3C2=O)n1 (stereo not drawn)
→ 0% | -3%
COc1ccc(C(=O)NCC(=O)NCc2ccc3c(c2)OCO3)cc1[N+](=O)[O-]
→ -1% | -8%
CCO[C@H]1C[C@@H](c2ccc(CC)cc2)N(S(=O)(=O)c2ccc(C)cc2)C2CC(c3ccc(CC)cc3)N(S(=O)(=O)c3ccc(C)cc3)CC21 (stereo partly drawn)
→ -6% | -6%
CCOC(=O)C1=C(c2ccccc2)N=C2SCC(=O)N2C1c1ccc(OC)c(OC)c1 (stereo not drawn)
→ nt | -2%
CC(=O)c1ccc(NC(=O)COc2ccccc2-c2nc(-c3ccccc3)no2)cc1
→ -5% | 0%
CC(C)Cn1c(N)c(C(=O)COC(=O)CN2C(=O)C3CC=CCC3C2=O)c(=O)n(C)c1=O (stereo not drawn)
→ -19% | -17%
Cc1cc(Cl)nc(NC(=O)Nc2cccc(Cl)c2)n1
→ -10% | -5%
O=C(Nc1ccccc1)c1cc(C2COCCN2C(=O)C2CC2)on1 (stereo not drawn)
→ 4% | 2%
COc1cc(OC)nc(C(NC(=O)C2CCN(Cc3c[nH]c4ccccc34)CC2)c2ccc(Cl)cc2)n1 (stereo not drawn)
→ ? | ?
COc1ccc(C(=O)c2cn(Cc3ccc(F)cc3)c3ccc(C)cc3c2=O)cc1
→ -10% | -8%
NS(=O)(=O)c1ccc(NC(=O)COC(=O)c2ccc(S(=O)(=O)N3CCOCC3)cc2)cc1
→ i | 2%
Cc1ccc(NC(=O)C2(C)CCN2Cc2cccc3c2OCO3)cc1O (stereo not drawn)
→ ? | ?
O=C(Nc1ccc2oc(-c3cccc4c(Br)cccc34)nc2c1)c1cccc(Cl)c1
→ -8% | -6%
CC1=C(C(=O)N2CCCCCC2)CC(CC(=O)NCc2cccs2)C(=O)N1Cc1ccccc1 (stereo not drawn)
→ i | -8%
COc1ccc(-c2cc3c(c4c2ccn4C)C2CCC3O2)cn1 (stereo not drawn)
→ i | -7%
COc1ccc(CN2CCN(C(=O)C3CCC(CNS(=O)(=O)c4ccccc4)CC3)CC2)c(OC)c1OC (stereo not drawn)
→ i | -15%
CC(=O)Nc1ccc2nc(SCc3ccccc3)sc2c1
→ -21% | -10%
COc1ccccc1N1CCN(C2CCCN(C(=O)CCc3ccccn3)C2)CC1 (stereo not drawn)
→ -15% | -4%
COCCOc1ccc(C(F)(F)F)cc1NC(=O)COC(=O)C12CC3CC(CC(O)(C3)C1)C2
→ -13% | -7%
O=C(O)Cc1ccc(NC(=O)Cc2ccc3ccccc3c2)cc1
→ -15% | -8%
COc1ccc(N2CCN(c3nc4c(c(=O)[nH]c(=O)n4C)n3Cc3cccc(C)c3)CC2)cc1
→ -1% | -9%
c1ccc(CNc2nc3ccccc3c3nc(-c4ccccc4)nn23)cc1
→ -14% | 7%
COc1ccc(OC)c(NC(=O)CSc2nc3ccccc3cc2Cc2ccccc2)c1
→ i | -14%
Cc1ccc(S(=O)(=O)N2CCCCCC2)cc1[N+](=O)[O-]
→ -18% | -2%
C[C@H](CO)N1C[C@H](C)[C@@H](CN(C)Cc2ccc(C(=O)O)cc2)Oc2ncc(Br)cc2C1=O
→ i | -7%
c1ccc2c(c1)CN1CCCC1=N2
→ 0%&-14% | -21%&-14%&0%
Cc1ccnc(NS(=O)(=O)c2ccc(NC(=O)CC(C)c3ccccc3)cc2)n1 (stereo not drawn)
→ i | 0%

The last 6 entries of the section above open the next one.
Each structure is followed by: VACV mCherry inh | Vaccinia Venus
c1ccc(CNc2nc3ccccc3c3nc(-c4ccccc4)nn23)cc1
→ -14% | 7%
COc1ccc(OC)c(NC(=O)CSc2nc3ccccc3cc2Cc2ccccc2)c1
→ i | -14%
Cc1ccc(S(=O)(=O)N2CCCCCC2)cc1[N+](=O)[O-]
→ -18% | -2%
C[C@H](CO)N1C[C@H](C)[C@@H](CN(C)Cc2ccc(C(=O)O)cc2)Oc2ncc(Br)cc2C1=O
→ i | -7%
c1ccc2c(c1)CN1CCCC1=N2
→ 0%&-14% | -21%&-14%&0%
Cc1ccnc(NS(=O)(=O)c2ccc(NC(=O)CC(C)c3ccccc3)cc2)n1 (stereo not drawn)
→ i | 0%
Cc1ccc(Cn2cc(S(=O)(=O)c3cccc(C)c3)c(=O)c3cc(F)c(N4CCOCC4)cc32)cc1
→ i | -15%
CC(C)Oc1ccc(S(=O)(=O)N(C(C)C)C(C)C)cn1
→ nt | -10%
Cc1ccc(-n2nccc2-c2nn(-c3cccc(C(F)(F)F)c3)c(=O)n(C)c2=O)cc1
→ i | -9%
CCN(CC)CCn1c2ccc(Cl)cc2c2nc(C)sc21
→ -24% | -16%
O=C(Nc1nc2ccccc2[nH]1)c1ccc(Br)o1
→ -15% | -30%
CNC(=O)c1cc(Oc2ccc(NC(=O)c3[nH]c(-c4ccccc4)c4c3C(=O)N(C)C4=O)cc2)ccn1
→ 21% | 1%
O=S(=O)(c1ccc(F)cc1)N1CCN(c2ccc(-c3ccccc3)nn2)CC1
→ -1% | -5%
NS(=O)(=O)c1cccc(NC(=O)CSc2nnc(C3CC3)n2Cc2ccccc2)c1
→ i | -14%
COc1cc2c(cc1OC)C(COc1ccc3c(C)cc(=O)oc3c1)N(C(=O)Cc1ccccc1)CC2 (stereo not drawn)
→ -12% | 2%
CCCCOC(=O)N/N=C/C=C/c1ccccc1
→ -6% | -2%
COc1ccc(CCN2C(=O)c3ccccc3NC2c2cc(Cl)c(O)c(OC)c2)cc1 (stereo not drawn)
→ ? | -17%
Cc1cc(C)n(-c2ccc([N+](=O)[O-])cc2-c2nn[nH]n2)n1
→ -14% | -12%
COc1ccc(CN2CCCC(C(=O)N3CCCC3)C2)c(OC)c1 (stereo not drawn)
→ -3% | -5%
CCc1cccc(NC(=O)CN(C)S(=O)(=O)c2ccc3[nH]c4c(c3c2)CCCC4)c1
→ -18% | -12%
COc1ccc(CCNC(=O)c2ccc3c(c2)N(Cc2ccccc2C)C(=O)c2ccccc2S3)cc1OC
→ -18% | -15%
O=C(c1cccc(F)c1)N1CCN(c2ccc([N+](=O)[O-])c(N3CCOCC3)c2)CC1
→ -21% | -25%
c1ccc(Cc2nn3c(-c4ccncc4)nnc3s2)cc1
→ 0% | -10%
CCCS(=O)(=O)n1nc(-c2ccc(C)cc2)cc1N
→ -4% | -6%
CC(=O)N1CCc2cc(Br)cc(S(=O)(=O)NCCCN3CCCC(C)C3)c21 (stereo not drawn)
→ -15% | -7%
COc1ccc(CN2CC[C@H]3C=CC[C@@H](C(=O)NCCc4ccccc4)[C@H]3C2=O)cc1OC
→ -25% | ?
CC[C@]12C(=O)N(C)C[C@H]([C@@H]3C(=O)N(C)C(=O)[C@@H]31)N2C(=O)c1ccc(Cl)c(Cl)c1
→ i | -6%
CCCCn1nnnc1C1(C)CCC(=O)N1Cc1cccnc1 (stereo not drawn)
→ -6% | 4%
O=C(c1ccc(S(=O)(=O)N2CCOCC2)cc1)N(Cc1ccco1)Cc1cccs1
→ -9% | -19%
O=C(NC1=NCCS1)c1cccc(S(=O)(=O)N2CCc3ccccc32)c1
→ -24% | -14%
COc1cccc(C2SCC(=O)N2c2ccc(Cl)cc2)c1OC (stereo not drawn)
→ -21% | -11%
COc1cc(C(CC(=O)Nc2ccc(F)cc2F)N2Cc3ccccc3C2=O)cc(OC)c1OC (stereo not drawn)
→ 5% | 6%
CCN(CC(=O)Nc1ccccc1C(F)(F)F)C(=O)c1ccc(=O)n(Cc2ccccc2)n1
→ -7% | -10%
CC(C)CN1CCC(C(=O)NC(c2ccc(F)cc2)c2ccc3ccccc3n2)CC1 (stereo not drawn)
→ 1% | -26%
Cc1onc(-c2ccccc2)c1C(=O)N1CCOC12CCN(c1cccc(F)n1)CC2
→ i | -8%
O=[N+]([O-])c1cccc(S(=O)(=O)N2CN(c3ccc(Br)cc3)c3nc4ccccc4nc32)c1
→ i | -9%

(further entries)
Each structure is followed by: VACV mCherry inh | Vaccinia Venus
Cc1cccc2[nH]c(CN(C)C(=O)C3CCC(=O)N(CCc4ccccc4)C3)nc12 (stereo not drawn)
→ -6% | -22%
COCCNC(=O)CCn1nc(-c2ccc(Cl)cc2)ccc1=O
→ -21%[1.46 µM] | -7%
O=C(NC1CC(=O)N(c2cccc(F)c2)C1)c1ccc(Br)o1 (stereo not drawn)
→ -3% | -11%
Cc1ccccc1-c1nsc(SCC(=O)c2ccc(Cl)cc2)n1
→ -11% | -24%
CCCCC1(CC)COC(c2ccccc2)OC1 (stereo not drawn)
→ i | -1%
COc1ccc(F)cc1S(=O)(=O)Nc1cc2c3c(c1)CCC(=O)N3CCC2
→ -16% | -9%
Cc1cc(C)cc(C(=O)N[C@@H](C)C(=O)N2CCC3(CC2)NCCc2[nH]cnc23)c1
→ -23% | -11%
Cc1c(NC(=O)c2cc3c(s2)-c2ccccc2OC3)cccc1[N+](=O)[O-]
→ ? | -26%
Cc1ccc(C2=NCCn3c2c2ccc([N+](=O)[O-])cc2[n+]3[O-])cc1
→ ? | ?
CC(=O)Nc1ccc(S(=O)(=O)N(C)CC(=O)OCC(=O)NNC(=O)c2ccccc2F)cc1
→ -15% | -5%
Cc1cc(C)cc(NC(=O)CSc2nc3ccccc3nc2N2CCCCC2)c1
→ i | -4%
COc1cc(Cl)c(C)cc1NC(=O)CC1CCCC1
→ -12% | -13%
CCN(CC(=O)Nc1cccc(F)c1)Cc1nc2ccccc2c(=O)[nH]1
→ -9% | -6%
N#CC1c2ccccc2-n2nncc2CN1C(=O)c1ccccc1F (stereo not drawn)
→ 7% | 7%
Cc1ccc(NC(=O)CC(=O)NCCN2CCOCC2)cc1
→ -16% | 3%
COc1ccc(CCNC(=S)NC2CCN(Cc3ccccc3)CC2)cc1
→ ? | -9%
CCCS(=O)(=O)NC(=O)C1(C)CCN(C(=O)c2ccc(C(=O)OC)cc2)C1 (stereo not drawn)
→ 11% | -1%
Cc1ccc(S(=O)(=O)N(C)C)cc1NC(=S)N1CCCCC1CO (stereo not drawn)
→ -6% | -8%
CSC1=NCCN1S(=O)(=O)c1ccc(NC(C)=O)cc1
→ i | -7%
O=C(Nc1ccc(Cl)c(C(F)(F)F)c1)[C@@H]1CC=C[C@@H]2CCN(C3CCCCC3)C(=O)[C@@H]21
→ -9%&-21% | -10%&-14%
Cc1nc(SCC(=O)N2CCNC2=O)c2ccccc2n1
→ -26% | -18%
CC(C)c1ccc(NC(=O)Nc2nc(C(N)COCc3ccccc3)cs2)cc1 (stereo not drawn)
→ ? | 11µM*
O=C(Cc1cccs1)N1CCN(c2ccc([N+](=O)[O-])cc2)CC1
→ -8% | -9%
FC(F)(F)c1ccncc1-c1nnnn1-c1ccc(Cl)cc1
→ i | -3%
Cc1ccc(S(=O)(=O)N2C[C@@H](C)[C@]3(C2)[C@H](O)[C@H](OC(=O)NCc2ccccc2)C[C@H]2C(=O)N(c4ccccc4)C(=O)[C@H]23)cc1
→ i | -18%
CSCCC(NS(=O)(=O)c1ccc(Cl)cc1)C(=O)OCC(=O)c1c(C)[nH]c2ccccc12 (stereo not drawn)
→ ? | ?
COc1ccc(N2CCN(C(=O)CN3CCN(C(c4ccccc4)c4ccccc4)CC3)CC2)cc1
→ -21% | -25%
COC(=O)C1=C(c2ccccc2OCc2ccccc2)C[C@@H]2CC[C@H]1N2C(=O)NCCN1CCOCC1
→ -2% | -11%
Cc1ccc([N+](=O)[O-])cc1S(=O)(=O)Nc1ccc(N2CCOCC2)cc1
→ -11% | -10%
O=C(N/N=C/c1cccc(C(F)(F)F)c1)c1ccc(O)cc1
→ -3% | -8%

(continued)
Each structure is followed by: VACV mCherry inh | Vaccinia Venus
CC1CCN(CCOCCOc2ccccc2-c2ccccc2)CC1
→ -10% | -14%
COC(=O)c1nn(-c2ccccc2)c(Sc2ccccc2)c1/C=N/O
→ nt | -17%
CCOC(=O)C1(Cc2cccc(F)c2)CCN(C(=O)c2ccoc2C)CC1
→ i | -5%
Cn1c(=O)oc2cc(S(=O)(=O)N3CCc4ccccc43)ccc21
→ ? | -2%
COc1ccc(-c2cccc(NC(=O)c3ccc4c(c3)OCO4)c2)nn1
→ -22% | -13%
COc1cccc(Nc2nc(C(C)N)cs2)n1 (stereo not drawn)
→ 4% | 9%
O=C(CN(C(=O)Cn1nnc(-c2ccccc2F)n1)c1cnc2ccccc2c1)NCC1CCCO1 (stereo not drawn)
→ 0% | 3%

Shown in markdown: part of the list above.
| SMILES | VACV mCherry inh | Vaccinia Venus |
| --- | --- | --- |
| COc1ccc(CN2CC[C@H]3C=CC[C@@H](C(=O)NCCc4ccccc4)[C@H]3C2=O)cc1OC | -25% | ? |
| CSCCC(NS(=O)(=O)c1ccc(Cl)cc1)C(=O)OCC(=O)c1c(C)[nH]c2ccccc12 (stereo not drawn) | ? | ? |
| Cc1ccc([N+](=O)[O-])cc1S(=O)(=O)Nc1ccc(N2CCOCC2)cc1 | -11% | -10% |
